# Source: PubChem BioAssay (several laboratories)
# Insulin prom inh: TRM-6 insulin promoter activity inhibition; TRM-6 cells (human fetal islet line), insulin promoter-eGFP reporter, imaging; reporter expression induced with tamoxifen; inhibition, % at 2 µM; actives 0.9% (n = 130,000); AID 1273;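 active = inhibition above the mean plus 3 SD, with well images judged a real hit on visual review, cut at about 60% in these data, passing the limit was not always enough; inconclusive = inhibition over the cutoff but images rejected on review; inactive = inhibition not above the cutoff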
# RGS16-Gao: regulators of human RGS16-Galphao interaction. O15492+P09471. AID 1441. actives 0.38% (n = 220,000). binding response (% of control), % at 10 µM. bead-based flow cytometry RGS16-Galphao binding, fluorescence; actives lie on both sides;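 active = below 25% or above 175%, edge rows of some plates excepted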;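 note: Galphao activated by GDP with aluminum fluoride before binding; 100% = wells without compound and 0% = beads without RGS; some results beyond the cut were filed as inactive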
# PKD1 inh: PKD1 (human) kinase inhibition. actives 0.056% (n = 200,000). Q15139. inhibition, %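 (about 10 µM by stock and volumes)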. PKD1 kinase fluorescence polarization assay;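 active = inhibition of 50% or more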;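 note: controls were vehicle for no effect and a reference inhibitor for full effect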
# Target sequence (Q15139 whole entry, looked up): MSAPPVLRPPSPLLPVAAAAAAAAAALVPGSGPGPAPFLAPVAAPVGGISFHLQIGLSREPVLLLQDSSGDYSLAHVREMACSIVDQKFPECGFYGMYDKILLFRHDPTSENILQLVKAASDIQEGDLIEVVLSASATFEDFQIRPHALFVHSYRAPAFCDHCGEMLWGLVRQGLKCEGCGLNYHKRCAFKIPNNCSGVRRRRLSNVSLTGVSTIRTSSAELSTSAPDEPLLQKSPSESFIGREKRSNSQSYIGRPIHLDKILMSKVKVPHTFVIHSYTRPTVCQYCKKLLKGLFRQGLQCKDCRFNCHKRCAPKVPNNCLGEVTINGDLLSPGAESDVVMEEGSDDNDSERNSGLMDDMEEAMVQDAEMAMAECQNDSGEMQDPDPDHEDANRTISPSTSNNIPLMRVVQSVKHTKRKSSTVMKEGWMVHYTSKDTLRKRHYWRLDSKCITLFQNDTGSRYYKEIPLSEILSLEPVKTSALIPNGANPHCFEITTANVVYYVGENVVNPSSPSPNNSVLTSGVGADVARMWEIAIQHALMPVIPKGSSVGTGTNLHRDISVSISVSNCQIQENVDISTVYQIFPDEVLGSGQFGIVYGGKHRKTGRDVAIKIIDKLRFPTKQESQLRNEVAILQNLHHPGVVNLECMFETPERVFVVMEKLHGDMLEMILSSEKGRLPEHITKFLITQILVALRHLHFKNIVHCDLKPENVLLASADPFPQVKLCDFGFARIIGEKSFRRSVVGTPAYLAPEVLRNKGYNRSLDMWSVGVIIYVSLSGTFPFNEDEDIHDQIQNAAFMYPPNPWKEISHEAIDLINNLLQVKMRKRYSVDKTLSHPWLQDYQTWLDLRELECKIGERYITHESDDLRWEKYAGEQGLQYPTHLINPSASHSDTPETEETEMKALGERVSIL
# HSV replic up: increases HSV replication in cells; HSV replication augmentation in cells, fold increase; maximum fold increase; actives 0.005% (n = 220,000); AID 1956;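 active = peak rise of 1.5-fold or more in the series; inconclusive = self-fluorescent or not available for retest; tested in PC3 cells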;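 note: first round at 10 µM; read as green reporter fluorescence; hits show the peak of a series up to 25 µM; 1 = signal of infected wells without compound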
# GALR2 agonist: GALR2 (human) receptor agonism; activation, %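 (tested at 5 µM)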; O43603; AID 803; GALR2-expressing cells, agonist activation read-out; actives 0.48% (n = 140,000);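 active = above mean plus 3 SD of all compounds, about 5% in these data, not always enough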;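 note: 0% = vehicle buffer wells and 100% = reference agonist at full effect; tested in CHO reporter cells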
# Insulin prom inh cell count: second read-out of Insulin prom inh, no call of its own (marks repeat the call); normalized cell count, %; measured here: cell count, toxicity; reference of the scale not given here;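 cells exposed to compound for 48 h; stained nuclei by imaging scaled within each plate; lower means fewer cells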
# HSV replic up primary fold: recorded beside HSV replic up, whose call it bears; fold increase; compound at 10 µM; measured here: primary screen fold increase 10 uM; tested in PC3 cells;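 GFP signal in the first replicate; 1 = infected wells without compound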
# * = called active by the depositor; i = inactive; ? = inconclusive; · = no result given; & = joins results of further samples.
SMILES,Insulin prom inh,Insulin prom inh cell count,RGS16-Gao,PKD1 inh,HSV replic up,HSV replic up primary fold,GALR2 agonist
CCCN1CCC(NC(=S)Nc2ccc(S(N)(=O)=O)cc2)CC1,·,·,98,-6,i,0.97,·
OC1(Cc2ccccc2)CCNCC1,·,·,96&99,·,i,1.1&0.95,·
COc1ccc(N2C(=O)C3[C@@H](C2=O)C2(Cl)C(Cl)=C(Cl)C3(Cl)C2(OC)OC)cc1 (stereo not given in full),·,·,108,-7,i,0.97,0.6
Cc1ccc(Cc2cnc(NC(=O)/C(C#N)=C/c3ccc(-c4ccccc4[N+](=O)[O-])o3)s2)cc1,-28,164,104,-2,·,·,-0.2
Cc1ccc(C)c(NC(=O)C2CC(O)CN2C(=O)OCc2ccccc2)c1 (stereo not given),25,104,104,-13,i,0.95,0.1
COC(=O)c1ccc2c(c1)C(=O)/C(=C/c1ccc(C)cc1)O2,-12,156,112,3,i,0.89,-0.6
Cc1ccc(C)c(-c2cc(C(=O)NN3CCOCC3)c3ccccc3n2)c1,·,·,101,-4,i,0.99,·
COc1cc(OC)nc(Oc2ccccc2C(=O)Oc2cccc(C)c2)n1,-30,114,114,-15,i,0.83,-4.3
COc1cc([N+](=O)[O-])cc(/C=N/NC(=O)c2ccc(C)nc2)c1O,·,·,67,0,i,1,-0.5
CC1(c2ccc3noc(-c4cccc(F)c4)c3c2)OCCO1,-33,82,96,-6,i,0.92,·
O=C(CCCCCNc1nc(=S)[nH]c2ccccc12)N1CCN(c2ccccn2)CC1,21,80,100,-2,i,0.8,-1.0
Cc1nc(COc2ccccc2Cl)sc1-c1ccnc(N)n1,·,·,104,·,i,0.88,·

# 7 structures from above, ordered by number of heavy atoms, low to high.
SMILES,Insulin prom inh,Insulin prom inh cell count,RGS16-Gao,PKD1 inh,HSV replic up,HSV replic up primary fold,GALR2 agonist
OC1(Cc2ccccc2)CCNCC1,·,·,96&99,·,i,1.1&0.95,·
COC(=O)c1ccc2c(c1)C(=O)/C(=C/c1ccc(C)cc1)O2,-12,156,112,3,i,0.89,-0.6
CCCN1CCC(NC(=S)Nc2ccc(S(N)(=O)=O)cc2)CC1,·,·,98,-6,i,0.97,·
Cc1ccc(C)c(-c2cc(C(=O)NN3CCOCC3)c3ccccc3n2)c1,·,·,101,-4,i,0.99,·
COc1ccc(N2C(=O)C3[C@@H](C2=O)C2(Cl)C(Cl)=C(Cl)C3(Cl)C2(OC)OC)cc1 (stereo not given in full),·,·,108,-7,i,0.97,0.6
O=C(CCCCCNc1nc(=S)[nH]c2ccccc12)N1CCN(c2ccccn2)CC1,21,80,100,-2,i,0.8,-1.0
Cc1ccc(Cc2cnc(NC(=O)/C(C#N)=C/c3ccc(-c4ccccc4[N+](=O)[O-])o3)s2)cc1,-28,164,104,-2,·,·,-0.2

# Additional results follow:
SMILES,Insulin prom inh,Insulin prom inh cell count,RGS16-Gao,PKD1 inh,HSV replic up,HSV replic up primary fold,GALR2 agonist
O=S(=O)(Nc1ccncc1Cl)c1cccc(Cl)c1Cl,·,·,94,·,i,0.98,·
COc1cccc(C(=O)OCCN2CCOCC2)c1,·,·,107,4,i,0.8,·
CC(O)[C@H]1CNC(=O)C(=O)N1CCc1cc(C(F)(F)F)cc(C(F)(F)F)c1 (stereo not given in full),·,·,99,·,i,0.9,·
COCCNC(=O)C(OC(=O)c1nsc(Cl)c1Cl)C(C)C (stereo not given),·,·,102,-1,i,0.97,·
N#C/C(=C/c1ccc(-c2ccccc2[N+](=O)[O-])o1)C(=O)NCCN1CCCCC1,·,·,104,·,i,0.95,·
Cc1ccc(CNc2nc3c([nH]2)c(=O)n(C)c(=O)n3C)cc1,·,·,99,-6,i,1.2,-0.6
O=C(CSc1nc(-c2ccccc2)nc2c1CCCC2)N1CCOCC1,-35,104,102,-10,i,0.92,-0.1
CC(=O)n1cc([C@@H]2C=C(C(=O)N3CCN(Cc4ccc5c(c4)OCO5)CC3)O[C@H](OCCCCO)C2)c2ccccc21,·,·,98,-5,i,0.8,·
COc1ccccc1N(CN1CCCC1=O)C(=O)COc1ccccc1,·,·,103,-11,i,1.3,-2.5
Cc1ccc(C(=O)N/N=C\c2cccs2)cn1,45,88,101,-5,i,1,·
COc1ccc(C(C)=O)cc1COC(=O)c1cc(C)oc1C,-50,108,98,-2,i,0.93,1.3
O=C(Nc1ccc2nc3n(c(=O)c2c1)CCCCC3)c1ccccc1Cl,·,·,102,-17,i,0.82,-3.0
COc1ccc(CNC2CCCc3ccccc32)cc1OC (stereo not given),·,·,104,-6,i,0.95,-1.1
COc1ccc(OCCNC(=O)C(c2ccccc2)c2ccccc2)cc1,-30,81,73,-7,i,0.96,-1.6
CCN1CCc2c(OCc3ccc(C)cc3)cccc2C1=O,-31,105,100,-6,·,·,·
O=C(Nc1ccc(N2CCCC2)c(Cl)c1)c1cccnc1,25,109,99,-9,i,0.89,-1.5
COc1ccc(N2CCN(C(=O)CCN3C(=O)C4C5C=CC(C5)C4C3=O)CC2)cc1 (stereo not given),·,·,100,-2,i,1,·
CCCOP(=O)(OCCC)C(NC(=O)C(C)(C)C)c1ccccc1 (stereo not given),·,·,96,6,i,1.1,-0.8
COc1ccc(C)cc1-n1nnnc1SCC(=O)NC(=O)NCc1ccco1,-4,126,95,-3,i,0.91,-2.8
Cc1nc(N/N=C/c2ccc(O)cc2)c2cnn(-c3ccccc3)c2n1,89*,37*,107,1,i,0.8,·
Cc1ccc(Cn2cnc3c(cnn3-c3ccc(F)cc3)c2=O)cc1,·,·,95,-10,i,1,·
Cc1nnc(SCC(=O)Nc2ccccc2C(=O)NC2CC2)s1,-13,127,99,3,i,0.96,-1.1
CCCCNS(=O)(=O)c1ccc2nc(SCC(=O)c3ccccc3OC)[nH]c2c1,41,172,101,-8,i,0.85,-2.2
CCc1ccc(NC(=O)c2ccccc2NC(=O)C2CCCO2)cc1 (stereo not given),23,76,105,-2,i,0.85,-1.2
O=C(O)CC1(O)C(=O)N(Cc2ccccc2)c2ccccc21 (stereo not given),·,·,101,-4,i,1.1,·
CCOc1ccc(NS(=O)(=O)c2ccc(OCC(=O)NCCCOC)cc2)cc1,-47,114,102,-4,i,0.96,-2.5
CN(CCC#N)C(=O)COC(=O)/C=C/c1ccc2c(c1)OCO2,-14,119,98,-5,i,1,·
O=C(Oc1c(CN2CCOCC2)cc(Cl)c2cccnc12)c1ccccc1F,·,·,98,-3,i,0.73,·
Cn1c(=O)c2c(nc(OCCc3ccccc3)n2C)n(C)c1=O,·,·,102,·,i,0.88,·
O=C(/C=C/NNC(=O)c1ccc(Br)cc1)c1ccccc1,4,100,101,-2,i,0.95,-0.7
O=C(NCC(=O)N1CCC(N2CCCCC2)CC1)C1CCCCC1,60,138,100,-3,i,0.79,-1.5
O=S(=O)(NCCCCCNS(=O)(=O)c1ccc(F)cc1)c1ccc(F)cc1,·,·,94,10,i,0.97,-1.2
O=C(c1cccc2c1C(=O)N(Cc1cccnc1)C2)N1CCN(c2ccccc2)CC1,-494,28,100,1,i,1,-0.1
FC(F)(F)c1cccc(-c2noc(CN3CCOCC3)n2)c1,-30,147,103,-8,i,0.98,-1.8
CC1CCN(CC(CS(=O)(=O)c2ccc([N+](=O)[O-])cc2)N2CCC(C)CC2)CC1 (stereo not given),·,·,94,·,i,0.98,·
CCc1nnc(NC(=O)CSc2nc(-c3ccccc3)cc(-c3ccc(OC)cc3)c2C#N)s1,·,·,102,1,i,0.81,-0.3
CC(CC(=O)O)CC(=O)Nc1nncs1 (stereo not given),·,·,100,·,i,0.46,·
CCN(c1ccccc1)S(=O)(=O)c1ccc(C(=O)Nc2nnc(C3CC3)o2)cc1,78*,99*,96,6,i,1.1,·
CCOC(CNC(=O)c1ccc2c(c1)ncn2-c1cccc(F)c1)OCC,-13,83,102,-1,i,0.97,·
COCCN1CCC(CNCc2c(C(=O)N3CCCCC3)nc3c(C)cccn23)C1 (stereo not given),·,·,98,·,i,0.95,·
COC(=O)/C=C/CSC1=N/C(=C/c2ccc(-n3cncn3)cc2)C(=O)N1,47,116,96,7,i,0.89,-1.2
CC1C(=O)NN=C1C(=O)N/N=C/c1ccco1 (stereo not given),·,·,103,-5,i,0.9,·
COc1ccc2nc(NC(=O)c3cc(C)oc3C)sc2c1,-38,102,91,3,i,1,-2.5
COC(=O)c1ccc(C2C(Oc3ccccc3C)C(=O)N2CCc2ccc(OC)c(OC)c2)cc1 (stereo not given),-29,100,98,6,i,0.95,-1.8
C#CCOCCOCCOCCNc1nc(N2CCN(C(=O)[C@H](CCCCN)n3cc([C@@H](N)C(C)CC)nn3)CC2)nc(N2CCN(C(=O)[C@H](Cc3ccc(O)cc3)n3cc([C@@H](N)C(C)CC)nn3)CC2)n1 (stereo not given in full),·,·,98,0,i,0.8,·
COc1cc(NC2c3ncccc3C(=O)N2Cc2ccco2)cc(OC)c1OC (stereo not given),36,121,99,-1,i,1,·
Clc1ccc(-c2nnc(-c3ccccc3)o2)c(Cl)c1,-115,40,109,-5,i,0.84,-1.2
CC(C)n1c(-c2cccnc2)nc2cnccc21,-86,146,214,3,i,0.86,-1.7

# 2 of these compounds in another layout:
Structure	Insulin prom inh	Insulin prom inh cell count	RGS16-Gao	PKD1 inh	HSV replic up	HSV replic up primary fold	GALR2 agonist
O=C(O)CC1(O)C(=O)N(Cc2ccccc2)c2ccccc21 (stereo not given)	·	·	101	-4	i	1.1	·
CCOc1ccc(NS(=O)(=O)c2ccc(OCC(=O)NCCCOC)cc2)cc1	-47	114	102	-4	i	0.96	-2.5

# Next part.
SMILES,Insulin prom inh,Insulin prom inh cell count,RGS16-Gao,PKD1 inh,HSV replic up,HSV replic up primary fold,GALR2 agonist
COCCn1c(SCC(=O)c2c(N)n(C)c(=O)n(C)c2=O)nc2ccccc21,25,172,97,-1,i,0.93,·
COC(=O)Nc1sccc1C(=O)Nc1sccc1C(=O)OC,17,97,101,-3,i,0.92,-0.8
Cc1nn(-c2ccccc2)c(OC(=O)c2cccs2)c1S(=O)(=O)c1ccccc1,-62,193,114,-9,i,0.98,-2.9
Cc1ccc(NC(=S)NN2CCOCC2)c(C)c1,5,112,102,-4,i,1,-2.4
CCOC(=O)CN1C(=O)N[C@@H](c2ccccc2)C(C(C)=O)=C1C,60*,75*,37,-17,i,1.1,-2.4
CC(C)(C)c1csc(SCC(=O)Nc2ccc(Cl)cn2)n1,41,161,106,0,i,0.78,-2.6
Cc1oc2c(CN3CCOCC3)c(O)ccc2c(=O)c1-c1ccc(Br)cc1,-3,118,122,-7,i,0.95,0.2
O=C(N/N=C/c1c(Cl)[nH]c2ccccc12)c1ccc2c(c1)OCCO2,·,·,102,·,i,0.96,·
CC(=O)c1ccccc1OCCOCCOc1ccccc1C(C)=O,25,103,106,-4,·,·,-0.4
CC(NC(=O)C1(S(=O)(=O)c2ccc(Cl)cc2)CC1)c1ccccc1 (stereo not given),-6,89,11,9,i,1.1,-2.1
Cc1ccn2c(NC3CCCC3)c(-c3ccncc3)nc2c1,-30,147,102,5,i,1.1,·
COCCn1c(SCC(=O)Nc2cc(C(C)(C)C)nn2-c2ccccc2)nnc1-c1ccncc1,12,87,106,-1,i,0.96,0.4
O=C(CSc1nnnn1-c1ccc(F)cc1)Nc1ccc(N2CCOCC2)c(Cl)c1,13,200,99,-1,i,0.88,-0.8
Cc1ccc(S(=O)(=O)/N=C(/Nc2ccccn2)c2ccc(Cl)cc2)cc1,·,·,·,-9,i,0.92,-3.0
Cc1nc(C)c(C(=O)Nc2ncc([N+](=O)[O-])s2)o1,11,47,89,-7,i,1.2,·
N#CC1=C(N)SC(N)=C(C#N)C1c1c(Cl)cccc1Cl,-14,94,109,-9,?,·,-2.3
COc1ccc(C=O)cc1Cn1ccnc1C,·,·,101,0,i,0.97,·
O=C(C(Cc1ccccc1)n1cccc1)N1CCN(c2ccccc2)CC1 (stereo not given),·,·,99,-6,i,0.94,-0.3
COCCOC(=O)C1=C(C)N=C2SCCC(=O)N2C1c1cccc(Br)c1 (stereo not given),·,·,106,-5,i,0.87,-0.3
COc1ccccc1-c1nnc(NC(=O)c2ccc3c(c2)OCO3)s1,5,76,99,-2,i,0.92,·
CCCCC(=O)NC(=S)Nc1cccc(NC(=O)c2ccccc2)c1,·,·,100,-5,i,0.81,·
CC(C)n1nnnc1SCC(=O)Nc1ccc2c(c1)OCCO2,·,·,98,·,i,0.63,·
COCCn1nnnc1C(CC(C)C)N1CCN(c2nc3ccccc3s2)CC1 (stereo not given),·,·,104,-3,i,1.1,·
CC(C)OC(=O)C1CC=CCC1C(=O)Nc1ccc(Cl)cc1 (stereo not given),20,74,105,1,i,0.94,-2.4
Cc1cccc(C(=O)O/N=C2\CCS(=O)(=O)c3sccc32)c1,23,97,101,-7,i,1,-1.4
COc1ccc(/C=N/NC(=O)CN2CCSCC2)cc1C,-3,95,108,-6,i,0.91,-1.0
